HPGD block: qHTS Assay for Inhibitors of HPGD (15-Hydroxyprostaglandin Dehydrogenase) | 4.3% of 150,000 active | Potency, µM, for inactives: at the top dose activity change, negative = inhibition, most hits filed as inhibitors | purified HPGD, NADH fluorescence kinetic, PGE2 substrate | 15-hydroxyprostaglandin dehydrogenase [NAD(+)] (Homo sapiens), P15428; active = well fitted inhibition curve with a large enough effect (not every such curve was filed as active); inconclusive = small, poorly fitted or top-dose-only effect, or another doubt; inactive = no such curve, though single readings can be large or run the other way;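 further: top concentration of the series not given in the record; plate controls included wells without enzyme; inactives centre near -10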
Target sequence (P15428 whole entry, looked up): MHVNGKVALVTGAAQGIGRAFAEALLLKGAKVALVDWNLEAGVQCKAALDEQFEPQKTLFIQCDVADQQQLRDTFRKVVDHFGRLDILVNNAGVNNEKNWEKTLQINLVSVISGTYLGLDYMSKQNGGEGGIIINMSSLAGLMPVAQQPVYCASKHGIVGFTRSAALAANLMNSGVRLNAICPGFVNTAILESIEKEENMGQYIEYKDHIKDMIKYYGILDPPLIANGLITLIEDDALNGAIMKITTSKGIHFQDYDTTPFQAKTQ
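NADH formation kinetics: reaction with 30 uM PGE2 and 1 mM NAD+ (final), 20 nM enzyme, Tris-HCl pH 8 with Tween 20, after 15 min compound preincubation at room temperature. Fluorescence change, last versus first of five reads.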
Active calls of the source: *; u = inconclusive. On the % scale 0 is the no-effect control and ±100 the full control effect; potency means the concentration at half of the fitted maximal effect. These rows are one share of the data, so the mix of outcomes need not match the whole.

# | Compound | HPGD block
1 | CCOC(=O)Nc1cc(C)ccc1OC | -9.3%
2 | Cc1ccc(COn2c(-c3ccc(Cl)cc3)nc3ccc([N+](=O)[O-])cc32)cc1 | -9.4%
3 | S=C(c1ccc(-c2ccccc2Cl)o1)N1CCOCC1 | 8.91µM*
4 | CC(C)(C)c1ccc(NC(=S)NCc2cccs2)cc1 | -10.7%
5 | COc1ccc(C(=O)CSc2nccc(=O)[nH]2)cc1 | -18.5%
6 | O=C(Nc1ccc2c(c1)OCCO2)c1coc2ccccc2c1=O | -15.7%
7 | Cc1ccc(-c2nnc3n2CCCCC3)cc1 | 5.01µM*
8 | Cc1cccc(/C=N/c2sc3c(c2C(=O)OC(C)(C)C)CCN(C)C3)c1O | 4.6%
9 | CCCCCCC(C)n1[nH]c(=O)c2c(C)cc(=O)[nH]c21 (stereo not given) | -10.6%
10 | COCC(=O)N=Nc1c(O)[nH]c2ccccc12 | u
11 | CCN(CCCNC(=O)CCc1nc(-c2ccc(C)cc2)no1)c1cccc(C)c1 | -18.5%
12 | COc1ccc(N2CCN(CC(=O)Nc3cccc(S(=O)(=O)N4CCOCC4)c3)CC2)cc1 | 1.4%
13 | N#Cc1c(NC(=O)c2cc(C3CC3)on2)sc2c1CCC2 | -27.9%
14 | O=C1CC(SCc2nc3ccccc3[nH]2)C(=O)N1c1cccc(F)c1 (stereo not given) | -19.4%
15 | COc1cc(S(=O)(=O)Nc2cccnc2)ccc1F | -8.2%
16 | COc1ccccc1-c1ccc2ncnc(N(C)C)c2c1 | 14.1µM*
17 | O=C(C1CCCCC1)N1CCN(c2ccccc2F)CC1 | -4.1%
18 | CCOc1nc(N2CCCCC2)nc(-n2cc(-c3ccccc3)nn2)n1 | -6.8%
19 | CC1(C)CC2(CC(C)(C)N1)OC(=O)N1CCc3ccccc3C12C (stereo not given) | 1.6%
20 | O=C(/C=C\Nc1ccc2c(c1)OCO2)c1ccccn1 | -10.8%
21 | COc1ccc(CCNC(C)=O)cc1 | -3.5%
22 | CC(C)(CC(=O)O)Cc1nc(-c2ccc(Cl)cc2)no1 | -8.4%
23 | COC(=O)C1C(=O)NC(SC)=C(C#N)C1c1ccccc1 (stereo not given) | -22.1%
24 | O=C(CCn1cccc1)NC1CCCc2ccccc21 (stereo not given) | -2.2%
25 | O=C(NCc1ccccc1Cl)C1CCN(C(=O)c2sccc2-n2cccc2)CC1 | -4.6%
26 | N#Cc1cc(C(=O)c2cc(Br)ccc2O)cn(C2CC2)c1=O | 17.8µM*
27 | COc1ccccc1CC(=O)N1CCCc2ccccc21 | -1.6%
28 | COc1cc(CNCC(C)C)cc(Br)c1OCC(=O)Nc1ccccc1 | -10.2%
29 | COc1ccccc1OCC(=O)OCn1c(SC)nnc(C)c1=O | 0.4%
30 | COc1ccc(S(=O)(=O)N(C)CC(=O)N2CCC(C(N)=O)CC2)cc1 | 2.2%

Part of the list above in another layout:
No.	HPGD block	Molecule
5	-18.5%	COc1ccc(C(=O)CSc2nccc(=O)[nH]2)cc1
8	4.6%	Cc1cccc(/C=N/c2sc3c(c2C(=O)OC(C)(C)C)CCN(C)C3)c1O
12	1.4%	COc1ccc(N2CCN(CC(=O)Nc3cccc(S(=O)(=O)N4CCOCC4)c3)CC2)cc1
6	-15.7%	O=C(Nc1ccc2c(c1)OCCO2)c1coc2ccccc2c1=O

Next part:
# | Compound | HPGD block
31 | CNC(=S)N1N=C(c2ccc(OC)cc2)CC1c1ccc(N(C)C)cc1 (stereo not given) | -15.4%
32 | Cn1cccc1Cc1nnc(SCC(=O)Nc2cccc(F)c2)n1CCc1ccccc1 | -11.2%
33 | CC1Cc2ccccc2C(=O)N1 (stereo not given) | 3.8%
34 | CCOC(=O)c1c(C)n(C)c2ccc(OC(=O)c3ccoc3)cc12 | -2.7%
35 | Cc1cnc(C(=O)Nc2cc(S(=O)(=O)N3CCOCC3)ccc2N2CCN(C)CC2)cn1 | -5.8%
36 | Cn1cnnc1SCC(=O)Nc1ccc2nc(SCc3ccccc3Cl)sc2c1 | -18.7%
37 | Cc1ccc(S(=O)(=O)NCCCNC(=O)c2ccccc2)cc1 | -12.1%
38 | CCOC(=O)C1CSC(CC(=O)Nc2ccc(Cl)cc2)C(=O)N1 (stereo not given) | -4.2%
39 | COc1cc(C(N)=O)cc(Br)c1OC | 0.8%
40 | COc1ccc(N2C(=O)C3CCCN3C2c2ccc(F)cc2)cc1Cl (stereo not given) | -0.3%
41 | CCSc1nc2ccccc2n1C(=O)c1ccc(S(=O)(=O)N2CCCCC2)cc1 | -17.6%
42 | CCOC(=O)NC(=O)C(=CNc1ccccc1OC)C(=O)NC(=O)OCC | -8.5%
43 | COc1ccc(Cl)cc1C(=O)Nc1ccccc1N1CCN(C)CC1 | 4.2%
44 | Cc1cc(=O)n2nc(N3CCC(C(=O)NCCc4ccccc4)CC3)sc2n1 | u
45 | CCN(Cc1ccccc1)C(=O)Cn1cnc2c1c(=O)n(C)c(=O)n2C | -7.3%
46 | O=C(O)c1nc2ccccc2nc1C(=O)O | -21.4%
47 | CC(=O)OCC1OC(n2c(Br)nc3c(=O)[nH]c(N)nc32)C(OC(C)=O)C1OC(C)=O (stereo not given) | -16.1%
48 | COc1cc(Nc2nnc(C)s2)c(Cl)cc1Cl | -16.5%
49 | CC1(C)C(c2ccccc2)=NC(c2ccc(F)cc2)N1O (stereo not given) | -7.2%
50 | CCCCOc1cccc(C(=O)NC(=S)Nc2cccnc2)c1 | -11.8%
51 | COc1cc2c(cc1OC)CN(C(=O)c1ccccc1C(=O)O)CC2 | -10.0%
52 | OC(CN1C2=NCCCN2c2ccccc21)c1ccc(Br)cc1 (stereo not given) | -1.1%
53 | Clc1cccc(-c2nnc(-c3ccccc3)o2)c1 | -26.0%
54 | Cc1nc2c(=O)[nH]c(=S)n(C)c2nc1C | 10µM*
55 | Cn1c(NCCN2CCOCC2)nc2c1c(=O)n(Cc1cccc(Cl)c1)c(=O)n2C | -10.5%
56 | O=C(Nc1cccc(Br)c1)c1ccn[nH]1 | -7.2%
57 | CC1(C)CC(=O)C(C2NCCc3ccccc32)=C(O)C1 (stereo not given) | -5.9%
58 | CC/C(=N/Nc1ccccc1)c1cnnc(SC)n1 | -12.2%
59 | O=C(CCn1c(=O)[nH]c2ccccc2c1=O)NCCCN1CCN(c2cccc(Cl)c2)CC1 | -1.2%
60 | COc1cc(OC)c(OC)cc1/C=C/C(=O)c1ccc(NS(=O)(=O)c2ccc(C)cc2)cc1 | -27.0%

Of the compounds above, two contain a tert-butyl group.
# | Compound | HPGD block
4 | CC(C)(C)c1ccc(NC(=S)NCc2cccs2)cc1 | -10.7%
8 | Cc1cccc(/C=N/c2sc3c(c2C(=O)OC(C)(C)C)CCN(C)C3)c1O | 4.6%

Next section.
# | Compound | HPGD block
61 | CCOC(=O)c1c(CN2CCOCC2)n(-c2ccccc2)c2cc(Br)c(OC)cc12 | -11.6%
62 | CCOC(=O)Cc1csc(NC(=O)CSc2nc(N)c3c(C)c(C)sc3n2)n1 | -11.2%
63 | CC(C)c1nc2ccccc2n1CCC(=O)O | -4.2%
64 | O=S(=O)(c1ccc2c(c1)OCCO2)N(Cc1ccc(F)cc1)Cc1nnc(-c2cccs2)o1 | 4.47µM*
65 | Cc1ccc(NC(=O)C2CCN(S(=O)(=O)c3cnc[nH]3)CC2)nc1 | 0.1%
66 | O=C(Nc1ccc(Oc2ccc(NC(=O)c3ccco3)c(NC(=O)c3ccco3)c2)cc1)c1ccco1 | -16.2%
67 | Cc1ccccc1C(=O)c1c[nH]c(C(=O)NCc2ccco2)c1 | -17.4%
68 | CCOCCn1c(C(C)O)nc2ccccc21 (stereo not given) | -4.3%
69 | CCCOc1ccc(Cc2c(Cl)nc(SC)nc2NC)cc1 | -8.5%
70 | Cc1nc(-c2cccc(S(=O)(=O)N3CCCCCC3)c2)cs1 | -6.6%
71 | Cc1ccc(NS(=O)(=O)c2ccc(NC(=O)C(C)Sc3ccc(Cl)cc3)cc2)c(C)c1 (stereo not given) | -18.3%
72 | CCC(=O)NC(Nc1nc2ccc(C)cc2s1)(C(=O)OC)C(F)(F)F (stereo not given) | -6.3%
73 | O=c1cc(N2CCc3ccccc3C2)[nH]c(=O)n1C1CCCCC1 | -4.0%
74 | O=C(NC1CCCCC1)C1CCN(S(=O)(=O)N2CCCCCC2)CC1 | -11.6%
75 | CC(=O)OCC1OC(n2ccc3ccccc32)C(OC(C)=O)C(OC(C)=O)C1OC(C)=O (stereo not given) | -7.4%
76 | c1ccc(Nc2ccc3c4c(cccc24)CC3)cc1 | u
77 | Cc1cc(C)n(C(=O)CCC2COc3ccccc3O2)n1 (stereo not given) | -19.6%
78 | Cc1cc(C(=O)Nc2cnn(Cc3ccc(Cl)cc3Cl)c2)no1 | -16.3%
79 | COc1ccc(C2CC(c3ccccc3)=NN2C(=O)COC(=O)c2cccc(S(=O)(=O)N(C)C)c2)cc1 (stereo not given) | -25.6%
80 | O=C(CSc1ccc(-c2ccc(F)cc2)nn1)N1CCN(c2ccccc2)CC1 | -1.8%
81 | COC(=O)c1ccc(OCC(=O)c2ccc(O)cc2O)cc1 | -14.0%
82 | Cc1ccc(S(=O)(=O)N2CCCC2C(=O)Nc2nc3ccccc3s2)cc1 (stereo not given) | -4.3%
83 | CCN(CC)C(=O)c1sc(NC(=O)c2ccncc2)c(C(=O)OC)c1C | 22.4µM*
84 | CCOC(=O)N1CCN(C(=O)c2ccc3c(SCC(=O)O)c4c(nc3c2)CCC4)CC1 | -17.3%
85 | O=C(NC1CCCCC1)C(=O)c1c(-c2ccccc2)[nH]c2ccccc12 | -7.9%
86 | CC(C)C(NC(=O)c1ccccc1NC(=O)c1ccco1)C(=O)O (stereo not given) | -6.6%
87 | O=C1C2CC=CCC2C(=O)N1c1n[nH]c(CCc2ccccc2)n1 (stereo not given) | -6.2%
88 | O=S(=O)(c1ccccc1)n1ccc(-c2cnc(-c3ccccc3)s2)n1 | 28.5%
89 | COc1cccc(NC(=O)CCP(C)(=O)O)c1 | -6.7%
90 | CCc1nc2ccccc2n1Cc1ccc(OC)c(OC)c1 | -4.7%

Next entries:
# | Compound | HPGD block
91 | CCOc1nc(NCCc2ccc(OC)c(OC)c2)nc(NC(C)(C)CO)n1 | -3.7%
92 | O=C(CSc1nnc(C2COc3ccccc3O2)o1)Nc1nccs1 (stereo not given) | -11.9%
93 | COc1ccc(C)cc1NC(=O)CSc1nnc(-c2ccccn2)n1Cc1ccco1 | -9.3%
94 | O=C(NNc1ccccc1[N+](=O)[O-])Nc1ccccc1 | -12.9%
95 | CCCCN(C(=O)c1ccc(S(=O)(=O)N(C)C)cc1)c1nc2ccccc2s1 | -12.4%
96 | CCOC(=O)NC(=O)CSc1ccccn1 | -3.3%
97 | O=C(CSCc1ccc(F)cc1)N1CCN(c2ccc(F)cc2)CC1 | -2.6%
98 | Cc1cc(NC(=O)CSc2nc(C(C)C)nc3sc4c(c23)CCCC4)no1 | -7.3%
99 | COc1ccc(OC)c2[nH]c(=O)c(CCNC(=O)C(C)C)cc12 | -29.4%
100 | O=C(CCc1nc2ccccc2[nH]1)Nc1ccc(F)cc1 | -0.8%
101 | Cc1ccc2nsnc2c1S(=O)(=O)N1CCN(C(=O)C2CCCO2)CC1 (stereo not given) | -8.4%
102 | Cc1cc2n(n1)SC(Nc1ccc(F)cc1)N2 (stereo not given) | -12.5%
103 | O=C(CCNc1ccc(Cl)c(C(F)(F)F)c1)c1ccco1 | -6.2%
104 | O=C(N=Nc1c(O)n(Cc2ccccc2)c2ccccc12)c1ccc(O)cc1 | -5.5%
105 | CC(C)(C)C1(C)OC(C(N)=O)C(C(N)=O)O1 (stereo not given) | -10.4%
106 | CCN(CC)C(=O)C[n+]1cccc(C(N)=O)c1 | -4.8%
107 | O=C(CSc1ccc(/C=N/NC(=O)c2cccc(F)c2)o1)Nc1ccccc1 | -10.8%
108 | O=C(Cc1cccs1)N1CCC(c2nc3c(nnn3Cc3ccccc3Cl)c(=O)[nH]2)CC1 | 15.8µM*
109 | CC(C)CC(=O)Nc1ccc(-c2nc3ccccc3c(=O)[nH]2)cc1 | -25.4%
110 | CN(C)c1nc(N)nc(-c2cccnc2)n1 | 1.0%
111 | COc1ccc(CNC(=S)Nc2cccc(C)c2)cc1 | -7.9%
112 | CC1Cn2c(nnc2-c2ccc(F)cc2)S1 (stereo not given) | -19.7%
113 | Cc1occc1-c1nnc(SCC(=O)N2CCN(c3ccccc3)CC2)n1C | 3.8%
114 | Cc1cccc(NC(=O)CN(C)S(=O)(=O)c2ccc(Br)cc2)n1 | -1.5%
115 | CC(NC(=O)c1ccc(Cn2cc([N+](=O)[O-])cn2)o1)c1ccccc1 (stereo not given) | -6.1%
116 | Cc1ccccc1OCC(=O)NC(=S)Nc1ccc(Br)c(C)n1 | -4.2%
117 | CCN1C(=O)C(Cc2nc3ccccc3c(=O)n2-c2ccccc2)c2ccccc21 (stereo not given) | -6.3%
118 | CCSc1nnc(CNC(=O)C23CC4CC(CC(C4)C2)C3)n1Cc1ccccc1 | -6.9%
119 | C=CCn1c(=O)c2ccccc2n2c(SCC(=O)NCCc3ccccc3)nnc12 | -11.3%
120 | CCOC(=O)c1cc(NC(=O)N(CC)C2CCCCC2)c(C)nc1C | -11.6%

(list continues)
# | Compound | HPGD block
121 | O=C(c1ccco1)N1CCC2(CCCN(Cc3ccccc3)C2)CC1 | -2.3%
122 | CC(C)OC(=O)C(C#N)c1nc2ccccc2nc1N1CCN(Cc2ccc3c(c2)OCO3)CC1 (stereo not given) | -6.8%
123 | Cc1ccc(C(=O)NCCCCNC(=O)c2ccc(C)o2)o1 | u
124 | CC1(C)CC(=O)C2=C(C1)OC(N)=C(C#N)C2c1ccccc1OC(=O)N1CCOCC1 (stereo not given) | -6.5%
125 | CCOC(=O)CSc1nc2ccc(NC(=O)CSc3nnnn3Cc3ccccc3)cc2s1 | -10.9%
126 | Cc1ccc(C(O)c2nccn2C)o1 (stereo not given) | -8.6%

Source: PubChem
